Screens from PubChem BioAssay.
HIV TAR-Tat: HIV-1 TAR-Tat binding disruption; HIV-1 TAR RNA, Tat peptide displacement FRET; stronger effect = higher value; z-score (test concentration not listed); hit rate 0.6% among 100,000; AID 1259389;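 also: score is relative to mean and SD of negative controls; some compounds called inactive have numbers as strong as hits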
CDC25B-CDK2 inh: human CDC25B-CDK2/CyclinA binding inhibition. P30305+P24941. z-score (test concentration not listed). HTRF CDC25B-CDK2/CyclinA binding, anti-His/anti-Flag; stronger effect = higher value. hit rate 0.72% among 94,000. AID 1259370;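 also: score is relative to mean and SD of negative controls; strong numbers were not always called active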
Starred values were filed as active, the others as inactive; / = no result given.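 The calls were made as follows: active = z-score from 3 up in half or more of its runs; inactive = the rest.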 Rows are unselected. Share with any hit: about 0.9%.

Each structure is followed by: CDC25B-CDK2 inh | HIV TAR-Tat
O=S(=O)(c1ccc(-c2cnc(C3CC3)o2)cc1)N1CCN(c2ccc(Cl)cc2)CC1
  / | 1.86
Nc1ccc(-c2nc3ccc(N)cc3s2)cc1
  -3.86 | 1.76
C#CCn1c(COc2ccccc2OC)nc2ccccc21
  -1.4 | -0.17
S=c1[nH]nc(COc2ccccc2)o1
  -2.54 | /
Cc1ccc2nc(NCCc3ccccc3)c(-n3nc(C)cc3C)nc2c1
  -1.02 | -0.03
COc1cc(OC)c(NS(=O)(=O)c2ccc(-c3n[nH]c(C)c3C)s2)cc1Cl
  / | 1.73
O=C(Cn1c2ncccc2c(=O)n1-c1ccccc1)Nc1cccc(F)c1
  / | 1.49
O=C(NCCC1=CCCCC1)c1cc(-c2ccco2)[nH]n1
  / | -6.83
c1ccc2c(c1)ccn1nnnc21
  -0.74 | /
COC(=O)Cn1nc(C)n2cccc2c1=O
  -1.75 | 3.64

(cont.)
Each structure is followed by: CDC25B-CDK2 inh | HIV TAR-Tat
CCC1CCCCN1CCCNC(=O)c1c(O)nc2cc(C)ccn2c1=O (configuration not stated)
  1.11 | 0.06
Cc1cc(C)c(Cn2cccc2C2=NC(C)CO2)c(C)c1 (configuration not stated)
  / | 1.23
Cc1ccc(-c2noc3ncnc(NCCCN4CCOCC4)c23)cc1
  / | 0.01
CC(c1ccccc1)N1C(=O)c2ccncc2C1=O (configuration not stated)
  / | 1.24
O=C(Nc1c(C(=O)c2ccc(Cl)cc2)oc2ccccc12)c1ccncc1
  / | -0.91
CCOC(=O)Cc1csc(NS(=O)(=O)c2ccccc2)n1
  -1.95 | /
COc1cccc(C2CC(=O)N3CN(C4CCCCC4)CSC3=C2C#N)c1OC (configuration not stated)
  6.17* | -0.67
COc1cccc(-c2noc(Cc3ccccc3)n2)c1
  -2.91 | 1.51
Cc1ccc(C(=O)Cc2nnc(-c3ccccc3)[nH]c2=O)cc1
  -2.12 | /
COc1ccc(CNS(=O)(=O)c2ccc(N3CCCCS3(=O)=O)cc2)cc1
  / | 0.46

Part of the list above, reformatted.
> COc1cccc(C2CC(=O)N3CN(C4CCCCC4)CSC3=C2C#N)c1OC (configuration not stated)
  CDC25B-CDK2 inh: 6.17* | HIV TAR-Tat: -0.67
> COc1cccc(-c2noc(Cc3ccccc3)n2)c1
  CDC25B-CDK2 inh: -2.91 | HIV TAR-Tat: 1.51
> Cc1ccc(C(=O)Cc2nnc(-c3ccccc3)[nH]c2=O)cc1
  CDC25B-CDK2 inh: -2.12 | HIV TAR-Tat: /
> COc1ccc(CNS(=O)(=O)c2ccc(N3CCCCS3(=O)=O)cc2)cc1
  CDC25B-CDK2 inh: / | HIV TAR-Tat: 0.46

(next part)
Each structure is followed by: CDC25B-CDK2 inh | HIV TAR-Tat
Cc1noc(/C=C/N(C)C)c1S(=O)(=O)N1CCN(C2CCCC2)CC1
  / | 0.98
COc1cccc2c1OC(c1ccccc1F)N1N=C(c3ccccc3O)CC21 (configuration not stated)
  0.57 | -0.93
O=C(NCCc1ccco1)c1noc2c1CCc1sccc1-2
  / | 0.79
COC(=O)c1ccccc1NC(=O)/C(C#N)=C\c1c(F)cccc1Cl
  -1.7 | /
CS(=O)(=O)N1CCCc2ccc(NS(=O)(=O)c3ccc4c(c3)OCCO4)cc21
  / | 0.73
CCN(Cc1cc(=O)n2oc(C)cc2n1)c1ccc(Cl)cc1
  / | -4.16
COCCCNC(=O)C1CCCN(c2nnc(-n3c(C)ccc3C)s2)C1 (configuration not stated)
  -1.3 | -0.08
CC(C)N1C(=O)C(O)(C2COC(C)(C)CC2=O)c2ccccc21 (configuration not stated)
  -1.01 | 1.44
COc1ccc(-c2noc(C(C)NS(=O)(=O)c3ccc(C)cc3)n2)cc1 (configuration not stated)
  -1.15 | 1.72
Clc1cccc(CNCCCSc2nnnn2-c2ccccc2)c1
  -0.69 | -1.02

New compounds follow:
Each structure is followed by: CDC25B-CDK2 inh | HIV TAR-Tat
Cc1csc(NC(=O)c2ccc(NC3=NC4CS(=O)(=O)CC4S3)cc2)n1 (configuration not stated)
  / | 2.29
O=c1c2c(nc3c(-c4ccccc4)c[nH]n13)CCC2
  -1.01 | -0.05
CCc1nc2nc(CSc3nnc(NC(=O)c4ccccc4)s3)cc(=O)n2[nH]1
  / | 2.53
CCOc1ccc(N(Cc2cc(=O)n3c(C)cccc3n2)C2=NC3CS(=O)(=O)CC3S2)cc1 (configuration not stated)
  -0.4 | -0.86
Cc1cc(-c2ccc(C)c(S(=O)(=O)Nc3ccc4c(c3)OCO4)c2)on1
  / | 0.8
O=C(Oc1ccc2cc(Br)ccc2c1)c1ccncc1
  -1.7 | 0.15
Cc1ccc(CN[C@H]2CS(=O)(=O)C[C@@H]2S(=O)(=O)c2ccc(F)cc2)cc1
  -1.28 | -0.15
COc1ccc(OC)c(-n2c(SC)nnc2-c2c[nH]c3ccccc23)c1
  -0.89 | /
C/C(=N\Nc1ccccc1)c1cc2cc(Br)ccc2oc1=O
  -1.34 | /
O=C(Nc1nnc(SCc2ccccc2F)s1)c1csnn1
  -0.23 | -0.18

The list continues.
Each structure is followed by: CDC25B-CDK2 inh | HIV TAR-Tat
O=C(NC1CCCC1)c1cc2n(n1)C(C(F)(F)F)CC(c1ccccc1)N2 (configuration not stated)
  0.39 | 1.4
c1cnc(-c2nc(-c3ccc4c(c3)ncn4C3CCCC3)no2)cn1
  / | 3.81
Cc1ccccc1-c1noc(-c2cccnc2NCC2CCCO2)n1 (configuration not stated)
  0.39 | 2
Cc1ccc2c(c1)C(O)(C1SC(N)=NC1=O)C(=O)N2 (configuration not stated)
  / | 1.46
Cn1cc(S(=O)(=O)N2CCCC2)cc1C(=O)N1CCN(c2ccccc2)CC1
  / | 1.17
Cc1nc(-c2csc(S(=O)(=O)Nc3ccccc3F)c2)no1
  / | 2.06
CCS(=O)(=O)Nc1cccc(-c2cn3ccccc3n2)c1
  -0.75 | 0.63
Cc1ccc2nc(NC(=O)c3cc(=O)c4ccc(C)c(C)c4o3)sc2c1
  0.51 | 1.08
O=C(C1CCN(c2nc3ccccc3n3cccc23)CC1)N1CCN(c2ccc(F)cc2)CC1
  / | 0.31
CS(=O)(=O)c1ccc2nc(NC(=O)Oc3ccccc3)sc2c1
  0.41 | 2.29

(listing goes on)
Each structure is followed by: CDC25B-CDK2 inh | HIV TAR-Tat
Cc1cc(-c2ccc(S(=O)(=O)N3CCOCC3)s2)n[nH]1
  / | 1.32
CCC(=O)N1c2cc(Cl)ccc2-n2c(nn(C(=O)CC)c2=O)N1C(=O)CC
  -1.02 | /
Cn1c(=O)[nH]c(=O)c2c1nc1oc(-c3ccccc3)cn12
  0 | -0.45
Cn1nc(C(=O)N2CCCc3ccccc32)c2c1-c1ccccc1OC2
  -0.79 | 0.19
O=C(c1ccccc1)C1CCN(C(=O)Nc2ccc(Cl)cc2)CC1
  0.01 | /
O=C(c1cc2c(s1)-c1ccsc1CC2)N1CCN(c2ccc(F)cc2)CC1
  / | -0.27
CCC12CC3CC(C1)CC(C(=O)O)(C3)C2
  1.34 | /
Cc1ccc(-n2ncc3c(NCCO)ncnc32)cc1C
  / | 0.51
Cc1c(C(=O)N2CC(C)CC(C)C2)oc2ccc3c(c12)C(O)CC1(CCCCC1)O3 (configuration not stated)
  1.05 | 0.41
O=[N+]([O-])c1ccc(C=Nc2ccc(Oc3ccc(Cl)cc3)cc2)s1
  -1.66 | /

Going on with the list.
Each structure is followed by: CDC25B-CDK2 inh | HIV TAR-Tat
CCOc1cc(C2CC(=O)N3CN(c4ccc(OC)cc4OC)CSC3=C2C#N)ccc1O (configuration not stated)
  3.12* | -1.13
OC(CN1CCN(c2cccc(Cl)c2)CC1)c1ccc2cc[nH]c2c1 (configuration not stated)
  -2.1 | 2.17
Cc1nc(-c2cccnc2)[nH]c(=O)c1CC1CC1
  1.12 | /
COc1ccc(-c2cc(C(=O)O)c3ccccc3n2)cc1
  / | 2.44
CCOC(=O)c1c(C)oc2ncnc(Nc3cc(Cl)ccc3OC)c12
  / | -0.24
CC(C)C(=O)N1N=C(c2cccc(NS(C)(=O)=O)c2)CC1c1cccs1 (configuration not stated)
  -1.75 | /
CCOC(=O)c1cnn(-c2cc(C)nc3c(C)c(-c4ccccc4)nn23)c1N
  -0.97 | 0.36
Cc1n[nH]c(C)c1CCC(=O)N1CCNc2ccccc2C1
  -1.97 | -0.48
c1cc(-c2nc3ccc(Oc4ccc5nc(-c6ccncc6)[nH]c5c4)cc3[nH]2)ccn1
  -1.62 | 2.69
Cn1[nH]c(C(F)(F)F)c(/C=N/Nc2ccc([N+](=O)[O-])cc2)c1=O
  -1.17 | /

Among those listed so far, 2 contain bromine:
Each structure is followed by: CDC25B-CDK2 inh | HIV TAR-Tat
O=C(Oc1ccc2cc(Br)ccc2c1)c1ccncc1
  -1.7 | 0.15
C/C(=N\Nc1ccccc1)c1cc2cc(Br)ccc2oc1=O
  -1.34 | /

(next part)
Each structure is followed by: CDC25B-CDK2 inh | HIV TAR-Tat
O=C1C(=O)N(c2nccs2)C(c2ccc(F)cc2)/C1=C(\O)c1ccc(Br)cc1 (configuration not stated)
  -1.16 | 0.59
Cc1nc2c(C)cccn2c(=O)c1Cc1nnc(SCC(=O)N2CCc3ccccc32)n1C
  -0.77 | -0.19
COc1ccc(-c2cn3cccnc3n2)cc1NC(=O)C1CC1
  0.66 | /
CC(C)c1ccc(NS(=O)(=O)c2ccc(-c3cnc(C4CC4)o3)cc2)cc1
  / | 1.33
CC(=O)OC1CCC2(C)C3CC(=O)C4(C)C(CC5OC6(CCC(C)CO6)[C@@H](C)C54)C3CC[C@H]2C1 (some centres not stated)
  / | 2.21
CNC(=O)Cn1cc2c(n1)CCC(C)C2 (configuration not stated)
  -1.78 | /
Cc1nn(C(C)C(=O)NCC2CCCO2)c(=O)c2c1sc1ccccc12 (configuration not stated)
  -1.08 | 1.87
COc1cccc(NC(=O)CS(=O)(=O)c2ccc3c(c2)S(=O)(=O)N=CN3)c1
  / | -0.31
Cc1[nH]c(-c2ccccn2)nc(=S)c1Cl
  0.96 | /
COc1cccc(-c2cnc(NCc3ccc(Br)cc3)n2C)c1
  -2.29 | -0.24

(listing goes on)
Each structure is followed by: CDC25B-CDK2 inh | HIV TAR-Tat
CCOC(=O)N1CCC(N[C@H]2CS(=O)(=O)C[C@@H]2S(=O)(=O)c2ccc(F)c(C)c2)CC1
  -0.81 | -0.07
C=CCN(C(=O)c1oc(=O)c2ccccc2c1-c1ccccc1)C1CCCCC1
  -1.37 | 0.44
COc1ccc(-c2[nH]c(SC)nc(=S)c2C#N)cc1
  -1.63 | /
CCOc1c(N2CCN(c3c(OCC)c(=O)c3=O)CC2)c(=O)c1=O
  -2.28 | /
COC(=O)c1ccc(OCC(O)Cn2c(C)[n+](C)c3ccccc32)cc1 (configuration not stated)
  0.43 | -0.35
CCOC(=O)[C@@H](NS(=O)(=O)c1cc(Cl)ccc1OC)C(C)C
  -1.28 | /
CCC(C)(C)C1CCC2(CC1)NC(=S)N(C)N2 (configuration not stated)
  -0.22 | /
CC1CCN(C(=O)c2cc3nc(-c4cccs4)cc(C(F)(F)F)n3n2)CC1
  -2.8 | 0.31
CC(=O)OCCOc1nc(N(C)C)nc(N(C)C)n1
  0.34 | 0.62
Cc1ccc(NS(=O)(=O)c2ccc(/C=C/c3onc(C)c3[N+](=O)[O-])s2)cc1Cl
  / | 0.04

Remaining list, next part
Each structure is followed by: CDC25B-CDK2 inh | HIV TAR-Tat
Cc1ccsc1C1CC(=O)Nc2cc3c(cc21)OCO3 (configuration not stated)
  -2.25 | /
COc1ccc2c(c1)c1c(c(=O)n(-c3ccc(F)c(Cl)c3)c(=O)n1C)n2C
  / | -0.07
COc1ccc(OCC(O)CNS(=O)(=O)c2cc(Cl)sc2Cl)cc1 (configuration not stated)
  0.42 | /
Brc1cccc(-c2nc3ncccn3c2NCc2ccccc2)c1
  / | -0.15
Cc1ccc(S(=O)(=O)Nc2c(-n3cnnc3)n[nH]c2C)cc1
  -1.89 | 0.22
OC(CCN1CCCC1)(c1ccccc1)C1CCCCC1 (configuration not stated)
  / | -0.3
O=C(Nc1ccc2c(c1)CCN(Cc1ncn[nH]1)C2)c1ccccc1-c1ccc(C(F)(F)F)cc1
  -1.73 | /
O=S(=O)(c1ccccc1)N1CCN(c2cc(-c3ccccc3)ncn2)CC1
  / | 1.89
Fc1ccccc1N1CCN(CCNc2nn3nnnc3c3ccccc23)CC1
  / | -1.48
CC(C)(C)c1ccc(S(=O)(=O)NCc2cccn2Cc2ccc(Cl)cc2)cc1
  / | 1.73

Next compounds.
Each structure is followed by: CDC25B-CDK2 inh | HIV TAR-Tat
COC(=O)CNC(=O)c1nc(SC)ncc1Cl
  -1.32 | /
COC(=O)c1ccc(C(Nc2cc(C)ccn2)c2ccc3ccc(C)nc3c2O)cc1 (configuration not stated)
  -2.66 | /
Fc1cccc(CSCc2c(F)cccc2Cl)c1
  -2.92 | /
CCOC(=O)c1cnc(SCc2cc(=O)n3ccccc3n2)nc1N
  / | -0.35
O=C1c2[nH]nc(-c3ccccc3O)c2C(c2ccc(F)cc2)N1Cc1ccncc1 (configuration not stated)
  0.85 | 1.61
CC(OS(=O)(=O)c1ccccc1)C(F)(F)[N+](=O)[O-] (configuration not stated)
  -0.13 | /
CCOC(=O)c1cc(=O)c2ccc(OC(=O)c3cccnc3Oc3ccccc3)cc2o1
  -0.92 | /
O=C(CCCc1nc(-c2ccc(Cl)cc2)no1)NCC1CCCO1 (configuration not stated)
  -2.42 | 0.95
C#CCn1c(C2CC(=O)N(c3ccc(F)cc3)C2)nc2ccccc21 (configuration not stated)
  -1.02 | -1.83
COc1ccc(OC)c(NC(=O)CCc2nnc3ccc(N4CCCC4)nn23)c1
  / | 1.41

Further records
Each structure is followed by: CDC25B-CDK2 inh | HIV TAR-Tat
O=C(CN1C(=O)c2cccnc2Oc2ccccc21)NC1CC1
  / | -0.04
CCCn1c(N2CCCC2)nc2c1c(=O)n(C)c(=O)n2C
  0.22 | /
O=C(NCc1cccs1)C1CCN(c2ccc(F)cc2)C1=O (configuration not stated)
  / | 1.52
Cc1cc2cc(CCNC(=O)c3cc4ccccc4o3)c(=O)[nH]c2cc1C
  -2.38 | /
